# Screens from PubChem.
# rRNA inh HTS – inhibits bacterial ribosomal RNA function over humanized ribosomes. GFP signal change (wild-type ribosome), % (no concentration beside the values). E. coli WT GFP vs humanized-ribosome RFP mutants, fluorescence, 24 h; hits give low values; DMSO median 0, no signal -100. actives 1.6% (n = 350,000). AID 720706;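 active = significant combined selectivity score with lowered wild-type GFP, culture density cut under 30%, mutant RFP and density less affected; inactive = any of these conditions unmet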; also: one replicate is shown; some compounds called inactive have numbers as strong as hits
# MLL AF4-AF9 inh – inhibitors of human MLL-AF4/AF9 interaction; actives 0.47% (n = 350,000); P42568; inhibition, % at 10 µM; AlphaScreen, biotin-AF4 peptide binding to FLAG-AF9;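 active = every replicate reaching a set inhibition limit, whatever the replicate mean, cut at about 25% in these data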;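 also: 0% = plate neutral control median and 100% = total signal loss; the record names both 10 and 1 µM as test concentration; the first replicate is given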
# Target sequence (P42568 whole entry, looked up): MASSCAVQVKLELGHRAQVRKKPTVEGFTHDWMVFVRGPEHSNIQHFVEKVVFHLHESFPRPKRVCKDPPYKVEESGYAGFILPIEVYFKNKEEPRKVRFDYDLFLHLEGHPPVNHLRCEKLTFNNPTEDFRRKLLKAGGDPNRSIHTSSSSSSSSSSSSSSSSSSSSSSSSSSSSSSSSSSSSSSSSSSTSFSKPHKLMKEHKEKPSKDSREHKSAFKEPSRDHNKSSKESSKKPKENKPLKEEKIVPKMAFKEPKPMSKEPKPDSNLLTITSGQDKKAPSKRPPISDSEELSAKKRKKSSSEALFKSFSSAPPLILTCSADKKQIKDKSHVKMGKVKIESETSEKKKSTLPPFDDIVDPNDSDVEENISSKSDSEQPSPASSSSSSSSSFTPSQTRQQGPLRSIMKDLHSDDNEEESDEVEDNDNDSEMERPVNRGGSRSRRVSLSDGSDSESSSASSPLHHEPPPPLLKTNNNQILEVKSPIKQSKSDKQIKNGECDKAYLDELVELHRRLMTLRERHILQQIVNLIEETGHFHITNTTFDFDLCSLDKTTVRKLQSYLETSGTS
# rRNA inh HTS OD600 – further read-out of rRNA inh HTS, marked with its call; OD600 change, %; measured here: OD600 growth;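 optical density of the mix in the first replicate; 0 = DMSO median and -100 = no signal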
# rRNA inh HTS RFP – second read-out of rRNA inh HTS, no call of its own (marks repeat the call); RFP signal change, %; measured here: RFP humanized mutant strains;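 first replicate; 0 = DMSO median and -100 = no signal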
# Active calls of the source: *.
SMILES,rRNA inh HTS,rRNA inh HTS OD600,rRNA inh HTS RFP,MLL AF4-AF9 inh
COc1ccccc1CNC(=O)C[C@H]1CC[C@@H](NC(=O)CN(C)C)[C@H](CO)O1,-2.2,-10.5,-2.3,-0.5
COc1ccccc1C#Cc1ccc([C@@H]2[C@@H](C#N)N(C(=O)C3CCC3)[C@H]2CO)cc1,-12.7,-45.5,25.1,0.5
CN(C)c1ccc(C=c2c3cc(O)ccc3n3c2cc(-c2ccccc2)[n+]3C)cc1,19.8,-72.7,49.7,77.8*
CC(=O)N(C)C[C@@H]1Oc2cc(C#CCC3CCCC3)ccc2S(=O)(=O)N([C@H](C)CO)C[C@@H]1C,0.9,-20.2,5.1,7.1
COCCNC(=O)C[C@H]1CC[C@@H](NS(=O)(=O)c2ccc(C)cc2)[C@@H](CO)O1,1.2,2.1,1.6,-0.5
O=C1CN(Cc2ccc(F)cc2)C[C@@H]2[C@H](c3ccc(-c4cccnc4)cc3)[C@@H](CO)N12,0.5,-8.8,-1.1,-6.9
CN(C)CC(=O)N1[C@@H]2c3ccc(-c4ccccc4)c(=O)n3C[C@H]1[C@H](CO)[C@H]2C(=O)N1CCOCC1,1.2,6.0,-3.7,-1.6
C[C@@H]1CN([C@H](C)CO)C(=O)c2cccc(NC(=O)Nc3ccc(F)cc3)c2O[C@H]1CN(C)Cc1ccncc1,1.3,-6.4,-1.4,-2.6
CO[C@H]1CN(C)C(=O)c2cc(NS(=O)(=O)CC(F)(F)F)ccc2OC[C@@H](C)N(C(=O)NC(C)C)C[C@@H]1C,-1.2,3.6,-1.8,-4.3
CNC[C@@H]1OCCCC[C@H](C)Oc2ccc(NC(=O)NC(C)C)cc2C(=O)N([C@H](C)CO)C[C@H]1C,9.9,7.1,-1.5,-4.2
C[C@@H]1CCCCO[C@@H](CN(C)Cc2ccc(C(F)(F)F)cc2)[C@H](C)CN([C@@H](C)CO)C(=O)c2cc(NC(=O)c3ccccc3)ccc2O1,-1.5,-0.7,2.5,-1.5
N#C[C@@H]1[C@@H](c2ccccc2-c2cccc(F)c2)[C@H](CO)N1C(=O)C1CC1,-1.0,-17.4,0.6,-0.4
O=C(C[C@@H]1CC[C@@H](NC(=O)CCN2CCCCC2)[C@@H](CO)O1)Nc1nccs1,-0.2,-3.8,0.0,-12.9
COCCN(C[C@H]1[C@H](c2ccccc2)[C@H](CO)N1C(C)=O)C(=O)c1ccncc1,1.0,12.1,-3.3,-2.0
C[C@H]1CN([C@@H](C)CO)C(=O)c2cc(NC(=O)NC3CCCCC3)ccc2O[C@H]1CN(C)C(=O)Nc1cccc2ccccc12,-1.8,4.8,0.1,-5.4
COc1ccc(CNC(=O)C[C@H]2C=C[C@@H](NC(=O)CN(C)C)[C@@H](CO)O2)cc1,-1.2,-3.1,-1.7,1.7
CN1C(=O)c2cc(NS(C)(=O)=O)ccc2OC[C@H]2O[C@H](CC(=O)N3CCOCC3)CC[C@@H]21,-3.2,-10.5,-4.1,-8.8
Cc1ccc(S(=O)(=O)N[C@@H]2CC[C@@H](CCNC(=O)C3CCCCC3)O[C@H]2CO)cc1,-0.8,-5.6,-1.0,-0.8
C[C@H](CO)N1C[C@H](C)[C@@H](CN(C)C(=O)C2CCCCC2)OCCCC[C@H](C)Oc2ccc(NC(=O)C3CCCCC3)cc2C1=O,-4.9,-11.9,-2.7,0.2
C[C@@H]1CN([C@@H](C)CO)C(=O)c2cccc(NC(=O)c3ccncc3)c2O[C@H]1CN(C)S(=O)(=O)c1cccs1,1.9,5.4,-1.2,-0.5
COCCNC(=O)C[C@@H]1C[C@H]2c3cc(NC(=O)CC4CC4)ccc3O[C@H]2[C@@H](CO)O1,0.4,3.4,-3.2,-0.1
C[C@H](CO)N1C[C@H](C)[C@H](CN(C)C(=O)c2ccncc2)OCCCC[C@H](C)Oc2ccc(NS(=O)(=O)c3cccs3)cc2C1=O,2.4,4.5,-3.4,-0.9
C[C@H](CO)N1C[C@H](C)[C@@H](CN(C)S(=O)(=O)c2ccc(Cl)cc2)Oc2ccc(NC(=O)Nc3ccc(C(F)(F)F)cc3)cc2CC1=O,-0.9,6.6,1.0,-0.1
O=C(Nc1cccc(F)c1)N1CC(=O)N2[C@H](CO)[C@H](c3ccc(-c4ccccc4F)cc3)[C@H]2C1,-33.2,-66.1,10.6,3.2
COC(=O)c1cc2c(c3c4cc(C)ccc4n(C(=O)c4ccccc4)c13)C(=O)N(Cc1ccccc1)C2,10.9,-0.2,13.4,-2.1
CCC(=O)NC[C@@H]1[C@@H](c2ccc(C3=CCCC3)cc2)[C@@H](CO)N1C(=O)CN(C)C,1.7,3.5,-2.1,1.0
O=C(NC1CCCCC1)C(C1CC1)n1c(=O)c(-c2cc3ccccc3[nH]2)nc2ccccc21 (configuration not stated),12.9,1.8,6.4,-48.5
CCCc1cn(CC[C@@H]2CC[C@H](NC(=O)C3CCCCC3)[C@@H](CO)O2)nn1,0.7,7.8,0.7,-2.3
C[C@H]1CCCCO[C@H](CN(C)C(=O)Nc2ccc(F)cc2)[C@@H](C)CN([C@@H](C)CO)C(=O)c2cc(NC(=O)Nc3ccc(C(F)(F)F)cc3)ccc2O1,1.8,4.1,-0.3,-10.8
C[C@@H]1CCCCO[C@@H](CN(C)C(=O)c2ccncc2)[C@@H](C)CN([C@H](C)CO)C(=O)c2cc(NS(=O)(=O)c3cn(C)cn3)ccc2O1,3.6,6.0,-0.3,-1.4
COc1ccccc1-c1cn(CC[C@H]2CC[C@H](NC(=O)Cc3ccccn3)[C@H](CO)O2)nn1,2.5,13.0,0.7,-0.1
C[C@H]1CN([C@@H](C)CO)S(=O)(=O)c2ccc(C3=CCCC3)cc2O[C@H]1CN(C)C(=O)c1cnccn1,-3.1,-8.9,-1.0,-2.3
O=C1CNC[C@H]2[C@@H](c3ccc(C4=CCCCC4)cc3)[C@@H](CO)N12,0.6,2.1,-1.0,-0.5
CC1CC(C)CN(C(C(=O)NC2CCCCC2)c2ccnc3ccccc23)C1 (configuration not stated),-6.6,-9.7,-8.2,-3.3
COc1ccc(S(=O)(=O)N[C@@H]2C=C[C@@H](CC(=O)N3CCN(c4ccccc4)CC3)O[C@@H]2CO)cc1,-5.3,-9.9,-2.0,-2.0
CN(C)CC(=O)Nc1ccc2c(c1)[C@H]1C[C@H](CC(=O)NCc3cc(F)ccc3F)O[C@H](CO)[C@H]1O2,1.1,6.4,-1.1,-0.4
CCOC(=O)C1CSCCS(=O)(=O)N1Cc1cc(F)ccc1Br (configuration not stated),-33.5*,-21.4*,-9.6*,-0.5
O=C(C[C@@H]1CC[C@@H]2[C@H](COC[C@H](O)CN2C(=O)Nc2ccc(Cl)c(Cl)c2)O1)NCc1ccccc1,-57.8,-75.6,-16.4,-0.1
O=C(C[C@H]1C[C@@H]2c3cc(NC(=O)CC4CC4)ccc3O[C@@H]2[C@H](CO)O1)NCC(F)(F)F,8.7,29.2,2.3,-1.5
CC(C)NC(=O)N1CCCCN2[C@H](CO)[C@@H](c3ccc(C#CC4CC4)cc3)[C@@H]2C1,5.6,1.6,-0.1,-3.4
COc1ccc(NC(=O)Nc2ccc3c(c2)C(=O)N([C@H](C)CO)C[C@H](C)[C@@H](CN(C)Cc2ccc(C(=O)O)cc2)O3)cc1,1.4,2.5,-1.5,-0.3
C[C@H](CO)N1C[C@H](C)[C@H](CN(C)C(=O)CN(C)C)Oc2cc(-c3ccc(C#N)cc3)ccc2S1(=O)=O,1.8,8.0,-3.5,-0.9
Cc1noc(C)c1NC(=O)N(C)C[C@@H]1Oc2ccc(NC(=O)Nc3ccc(C(F)(F)F)cc3)cc2CC(=O)N([C@@H](C)CO)C[C@@H]1C,4.2,2.1,-1.3,-4.8
C[C@@H]1CN([C@H](C)CO)C(=O)c2c(c3ccccc3n2C)-c2ccccc2CO[C@@H]1CN(C)Cc1cccc(O)c1,-34.9,-65.8,11.4,2.7
C[C@H](CO)N1C[C@H](C)[C@H](CN(C)Cc2cccc(C(=O)O)c2)Oc2cc(C3=CCCCC3)ccc2S1(=O)=O,-1.3,-6.9,-0.4,3.0
COc1ccccc1-c1ccc2n(c1=O)C[C@@H]1[C@@H](CO)[C@H](C(=O)N(C)C)N(C(=O)c3cccnc3)[C@H]21,1.3,1.6,-1.3,-5.8
COc1ccc2c3c(n(C)c2c1)[C@H](CO)NCC31CN(Cc2ccccc2F)C1,2.7,-6.9,7.1,54.0*
CC(C)n1[nH]c2ccccc2c1=O,9.4,14.6,0.8,1.7
Cn1cnc(S(=O)(=O)N2CCCCN3[C@H](CO)[C@H](c4ccc(-c5ccccc5F)cc4)[C@@H]3C2)c1,-4.7,3.5,1.5,-1.1
COc1ccc(NC(=O)N(C)C[C@H]2Oc3ccc(NS(=O)(=O)c4ccc(F)cc4)cc3C(=O)N([C@@H](C)CO)C[C@@H]2C)cc1,1.6,13.8,-1.1,-3.1

# Exported with values under each structure: entries from further up
# Values run as follows: rRNA inh HTS	rRNA inh HTS OD600	rRNA inh HTS RFP	MLL AF4-AF9 inh
C[C@H](CO)N1C[C@H](C)[C@H](CN(C)Cc2cccc(C(=O)O)c2)Oc2cc(C3=CCCCC3)ccc2S1(=O)=O
  -1.3	-6.9	-0.4	3.0
COc1ccc(NC(=O)Nc2ccc3c(c2)C(=O)N([C@H](C)CO)C[C@H](C)[C@@H](CN(C)Cc2ccc(C(=O)O)cc2)O3)cc1
  1.4	2.5	-1.5	-0.3
Cc1noc(C)c1NC(=O)N(C)C[C@@H]1Oc2ccc(NC(=O)Nc3ccc(C(F)(F)F)cc3)cc2CC(=O)N([C@@H](C)CO)C[C@@H]1C
  4.2	2.1	-1.3	-4.8

# The results go on.
SMILES,rRNA inh HTS,rRNA inh HTS OD600,rRNA inh HTS RFP,MLL AF4-AF9 inh
C[C@@H](NC(=O)[C@H]1[C@H](CO)[C@H]2Cn3c(cccc3=O)[C@H]2N1S(C)(=O)=O)c1ccccc1,-0.2,3.0,-2.7,-12.5
C[C@H]1CN([C@@H](C)CO)C(=O)c2cc(NC(=O)c3ccncc3)ccc2O[C@@H]1CN(C)Cc1ccc(C(=O)O)cc1,4.6,13.6,-2.6,-1.6
COc1ccc(NC(=O)N[C@@H]2CC[C@@H](CCNC(=O)Cc3ccncc3)O[C@@H]2CO)cc1,-2.9,3.8,-2.4,-0.1
CO[C@@H]1CN(C)C(=O)c2cc(NC(=O)Nc3ccccc3Cl)ccc2OC[C@@H](C)NC[C@@H]1C,0.8,2.0,1.7,0.3
CCS(=O)(=O)N1[C@@H](CO)[C@H](c2ccccc2)C12CN(C(=O)C1CCCC1)C2,4.3,13.6,-2.2,-10.5
CCc1nc2ccc(C(=O)NCCCN3CCCC3=O)cn2c1N(CC)C(=O)NCCc1ccccc1,10.9,23.8,0.8,-0.3
COc1ccccc1C#Cc1ccc([C@@H]2[C@@H](CO)N(C(=O)C3CCC3)[C@H]2C#N)cc1,-18.5,-42.9,25.3,0.3
CCOc1ncccc1C(=O)OC(C)C(=O)Nc1ccc(Cl)cn1 (configuration not stated),4.1,-6.8,-1.4,-0.8
CCCC(=O)Nc1ccc2c(c1)C(=O)N(C)C[C@@H](OC)[C@@H](C)CN(CCC)[C@H](C)CO2,2.5,3.0,-3.9,-0.2
C[C@H](CO)N1C[C@H](C)[C@@H](CN(C)Cc2ccc(F)cc2)Oc2ncc(-c3ccccc3F)cc2C1=O,-2.2,-0.2,1.2,1.6

# Fetched by compound from above:
SMILES,rRNA inh HTS,rRNA inh HTS OD600,rRNA inh HTS RFP,MLL AF4-AF9 inh
COc1ccc(NC(=O)N[C@@H]2CC[C@@H](CCNC(=O)Cc3ccncc3)O[C@@H]2CO)cc1,-2.9,3.8,-2.4,-0.1
CCc1nc2ccc(C(=O)NCCCN3CCCC3=O)cn2c1N(CC)C(=O)NCCc1ccccc1,10.9,23.8,0.8,-0.3
C[C@H](CO)N1C[C@H](C)[C@@H](CN(C)Cc2ccc(F)cc2)Oc2ncc(-c3ccccc3F)cc2C1=O,-2.2,-0.2,1.2,1.6
C[C@H]1CN([C@@H](C)CO)C(=O)c2cc(NC(=O)c3ccncc3)ccc2O[C@@H]1CN(C)Cc1ccc(C(=O)O)cc1,4.6,13.6,-2.6,-1.6
C[C@@H](NC(=O)[C@H]1[C@H](CO)[C@H]2Cn3c(cccc3=O)[C@H]2N1S(C)(=O)=O)c1ccccc1,-0.2,3.0,-2.7,-12.5

# (continued)
SMILES,rRNA inh HTS,rRNA inh HTS OD600,rRNA inh HTS RFP,MLL AF4-AF9 inh
O=C(C[C@@H]1CC[C@@H](NC(=O)C2CC2)[C@@H](CO)O1)NC1CCC1,0.0,-0.3,-1.6,0.0
CNC[C@H]1Oc2ccc(NS(=O)(=O)c3ccc(Cl)cc3)cc2CC(=O)N([C@H](C)CO)C[C@H]1C,1.3,-1.1,-1.1,-4.2
C[C@H]1CN([C@@H](C)CO)C(=O)c2cc(NC(=O)Nc3ccc(C(F)(F)F)cc3)ccc2O[C@H]1CN(C)C(=O)Nc1ccc2c(c1)OCO2,0.6,3.9,-2.2,3.8
COCC(=O)N(C)C[C@@H]1Oc2ncc(Br)cc2C(=O)N([C@H](C)CO)C[C@@H]1C,2.3,2.4,-4.0,3.4
COc1cc(NC(=O)c2ccc(-c3c(C)noc3C)c3ccoc23)cc(OC)c1OC,-12.5,-14.7,-2.3,-0.8
C/C=C/c1ccc([C@@H]2[C@@H](CO)N(C(C)=O)C23CN(C(=O)c2ccc(F)cc2)C3)cc1,-0.9,-7.7,3.3,2.4
C[C@H]1CCCCO[C@H](CN(C)C(=O)Cc2ccccc2)[C@@H](C)CN([C@@H](C)CO)C(=O)c2cc(NC(=O)Nc3ccc(F)cc3)ccc2O1,0.3,-7.1,1.2,0.9
CC(C)NC(=O)N(C)C[C@H]1Oc2ccc(NS(C)(=O)=O)cc2CC(=O)N([C@H](C)CO)C[C@@H]1C,4.6,11.2,-2.8,-2.3

# An excerpt, so the mix of outcomes need not match the whole.
